nsP2pro inh: Primary qHTS for inhibitors of NSP2Pro chikungunya virus (CHIKV). FRET peptide cleavage, nsP2pro, fluorescence 1 h. Potency, µM (doses to about 24.9 µM), without a hit: top-dose activity change, negative = inhibition, usual class: inhibitors. actives 1.1% (n = 31,000). AID 1964107, 2024; active means well fitted inhibition curve with a large enough effect; inconclusive means small, poorly fitted or top-dose-only effect; inactive means no such curve, though single readings can be large or run the other way; note: nearly all actives have a fitted effect of over 60% in size; a reference inhibitor and vehicle were the controls
Target sequence (Q8JUX6 whole entry, looked up): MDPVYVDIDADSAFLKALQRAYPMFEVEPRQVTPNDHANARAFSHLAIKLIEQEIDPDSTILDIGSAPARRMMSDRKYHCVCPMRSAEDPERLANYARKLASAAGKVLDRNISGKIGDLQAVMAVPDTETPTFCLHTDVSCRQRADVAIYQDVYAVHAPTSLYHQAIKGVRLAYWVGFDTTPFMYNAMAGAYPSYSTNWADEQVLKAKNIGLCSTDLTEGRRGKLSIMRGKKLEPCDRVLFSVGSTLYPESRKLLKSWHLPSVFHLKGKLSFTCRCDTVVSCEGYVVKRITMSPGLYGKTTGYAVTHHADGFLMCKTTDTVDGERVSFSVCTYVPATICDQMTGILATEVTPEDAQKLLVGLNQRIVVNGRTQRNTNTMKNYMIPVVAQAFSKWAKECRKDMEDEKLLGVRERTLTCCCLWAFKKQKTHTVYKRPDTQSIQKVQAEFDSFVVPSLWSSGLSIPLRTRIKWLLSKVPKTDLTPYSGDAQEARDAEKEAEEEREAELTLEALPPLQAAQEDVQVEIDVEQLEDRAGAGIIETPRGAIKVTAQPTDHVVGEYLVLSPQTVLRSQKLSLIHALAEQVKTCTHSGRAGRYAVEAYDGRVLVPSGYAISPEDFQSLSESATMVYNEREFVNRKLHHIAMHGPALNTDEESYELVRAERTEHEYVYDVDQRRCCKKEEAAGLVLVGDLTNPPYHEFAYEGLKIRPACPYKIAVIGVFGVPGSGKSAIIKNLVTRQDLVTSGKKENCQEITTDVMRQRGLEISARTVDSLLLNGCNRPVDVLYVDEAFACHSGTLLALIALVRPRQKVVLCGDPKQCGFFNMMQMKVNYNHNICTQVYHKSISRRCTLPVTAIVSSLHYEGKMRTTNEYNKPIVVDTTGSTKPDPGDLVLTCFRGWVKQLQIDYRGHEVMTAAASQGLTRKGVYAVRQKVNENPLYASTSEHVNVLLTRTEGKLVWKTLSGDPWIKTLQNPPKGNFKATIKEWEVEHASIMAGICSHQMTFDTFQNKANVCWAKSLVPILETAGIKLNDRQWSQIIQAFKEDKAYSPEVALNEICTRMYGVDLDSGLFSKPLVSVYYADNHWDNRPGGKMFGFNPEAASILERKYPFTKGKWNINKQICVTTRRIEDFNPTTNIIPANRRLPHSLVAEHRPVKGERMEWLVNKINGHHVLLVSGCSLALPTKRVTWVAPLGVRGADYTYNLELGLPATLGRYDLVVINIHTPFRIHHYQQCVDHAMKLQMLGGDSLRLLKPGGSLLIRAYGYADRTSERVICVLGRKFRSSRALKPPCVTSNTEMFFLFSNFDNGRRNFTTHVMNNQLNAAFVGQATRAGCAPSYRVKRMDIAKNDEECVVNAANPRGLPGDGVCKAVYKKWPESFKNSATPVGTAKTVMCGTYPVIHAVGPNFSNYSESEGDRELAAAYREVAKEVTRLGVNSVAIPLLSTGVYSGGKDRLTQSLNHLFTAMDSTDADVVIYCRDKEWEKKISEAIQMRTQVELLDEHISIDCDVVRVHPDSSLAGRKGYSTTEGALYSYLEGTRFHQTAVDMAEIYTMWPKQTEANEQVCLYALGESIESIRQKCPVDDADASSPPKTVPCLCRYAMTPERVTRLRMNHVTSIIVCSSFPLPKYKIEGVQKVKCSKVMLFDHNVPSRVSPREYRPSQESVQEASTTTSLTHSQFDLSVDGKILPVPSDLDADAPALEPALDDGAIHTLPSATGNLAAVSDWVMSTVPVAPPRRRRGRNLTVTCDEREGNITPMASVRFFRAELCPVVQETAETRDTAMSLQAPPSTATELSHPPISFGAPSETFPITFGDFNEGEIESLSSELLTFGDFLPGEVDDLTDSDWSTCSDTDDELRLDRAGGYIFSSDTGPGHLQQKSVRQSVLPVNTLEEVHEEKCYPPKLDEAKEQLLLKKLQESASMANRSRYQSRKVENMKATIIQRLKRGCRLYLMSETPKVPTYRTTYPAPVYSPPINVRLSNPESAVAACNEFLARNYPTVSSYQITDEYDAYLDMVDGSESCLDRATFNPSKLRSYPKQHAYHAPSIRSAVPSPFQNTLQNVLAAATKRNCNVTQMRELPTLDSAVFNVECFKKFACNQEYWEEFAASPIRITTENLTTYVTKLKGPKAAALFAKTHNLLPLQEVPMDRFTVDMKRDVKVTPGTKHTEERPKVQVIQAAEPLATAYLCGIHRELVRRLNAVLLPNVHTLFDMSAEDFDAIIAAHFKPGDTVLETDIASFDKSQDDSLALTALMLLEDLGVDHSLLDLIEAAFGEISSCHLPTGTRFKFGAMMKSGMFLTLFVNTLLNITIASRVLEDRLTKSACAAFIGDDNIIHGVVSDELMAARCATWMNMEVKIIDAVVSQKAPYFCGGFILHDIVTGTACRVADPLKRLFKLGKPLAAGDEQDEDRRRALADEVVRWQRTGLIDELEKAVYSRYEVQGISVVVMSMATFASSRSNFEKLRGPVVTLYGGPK
An asterisk follows results filed as active; ? = inconclusive; & = joins results of further samples; [ ] = another dose, or the depositor's remark. % is set by controls: 0 for no effect and ±100 for the full control effect; potency is the fitted concentration of half-maximal effect. Not all compounds are listed. The share of hits here may be higher or lower than overall.

entry	SMILES	nsP2pro inh
1	Cc1cc2c(cc1CC(=O)c1sccc1S(=O)(=O)Nc1onc(C)c1Cl)OCO2	-19%&-23%
2	COc1ccc(-c2cnc3c(-c4cccc5ncccc45)cnn3c2)cc1	-4%
3	c1nc(NC2CCCCCC2)c2cc(CNC[C@H]3CCCO3)sc2n1	24%
4	COc1cccc(-c2ccc([C@@H](Oc3cc(-c4ccc(C[C@H](N)C(=O)O)cc4)nc(N)n3)C(F)(F)F)cc2)c1	12%
5	CCCCc1ccc(C(=O)Nc2cc(-c3ccc(Cl)cc3)nn2-c2ccc(Cl)cc2)cc1	-3%
6	COc1c(F)cccc1C(=O)N1C[C@@H](C)CC[C@H]1CNc1ccc(Br)cn1	-11%
7	CN[C@H]1CN(c2ccc3c(=O)c(C(=O)O)cn(-c4nccs4)c3n2)C[C@@H]1OC	-5%[5.1 µM]
8	c1cc(NC2CCNCC2)nc(-c2cnc3ccccn23)c1	247%[activator]
9	CC(C)Oc1ccc(-c2cnc3c(-c4ccnc5ccccc45)cnn3c2)cc1	-9%
10	O=C(NN1CCCC1)NS(=O)(=O)c1ccc(Cl)cc1	-1%
11	CCCCCCc1ccc(O)cc1O	6%&-9%
12	CN(C)N(C)C(=O)[C@@]1(Cc2ccccc2)CCCN(C(=O)[C@@H](Cc2c[nH]c3ccccc23)NC(=O)C(C)(C)N)C1	4%&19%
13	CCNC(=O)c1noc(-c2cc(Cl)c(O)cc2O)c1-c1ccc(OC)cc1	-21%
14	Cc1cccc(C)c1NC(=O)C1CCCCN1C (stereo unspecified)	-9%
15	CCNC(=O)Nc1ccc(-c2nc3c(c(N4CCOCC4C)n2)CCN(C2COC2)C3)cc1 (stereo unspecified)	-13%
16	Cc1nc(Nc2n[nH]c3c2CN(C(=O)NC(CN(C)C)c2ccccc2)C3(C)C)c2sccc2n1 (stereo unspecified)	24%
17	CN1CCN(C2CCN(C(=O)Nc3cc(Oc4ccc(NC(=O)C5(C(=O)Nc6ccc(F)cc6)CC5)c(F)c4)ccn3)CC2)CC1	281%[activator]
18	C[C@@H]1CCNC(=O)c2cc3ccc(C(=O)Nc4nc5ccccc5n4CCCN(C)C)cc3n21	203%[activator]
19	CC(C)n1nc(-c2ccc3oc(N)nc3c2)c2c(N)ncnc21	-16%&-8%
20	CC(=O)c1c(C)c2cnc(Nc3ccc(N4CCNCC4)cn3)nc2n(C2CCCC2)c1=O	-10%
21	NC1(c2ccc(-c3nc4ccn5c(=O)[nH]nc5c4cc3-c3ccccc3)cc2)CCC1	10%
22	CC(=O)Nc1ccccc1	-2%
23	COc1ccc2c(NC(=O)Nc3cccc(C(F)(F)F)n3)ccnc2c1	14%
24	CCCOC(=O)c1ccc(O)cc1	-27%
25	O=C(O)c1ccc2c(c1)nc(Nc1cccc(Cl)c1)c1ccncc12	43%&-2%
26	CC(O)CC(=O)O (stereo unspecified)	16µM*
27	NS(=O)(=O)c1cc(-c2nn[nH]n2)c(NCc2cccs2)cc1Cl	15%
28	O=C(Nc1ccccc1)Nc1ccc(-c2ccc(C(=O)C3CCCC3C(=O)O)cc2)cc1 (stereo unspecified)	99%[activator]
29	Cc1ccc2nc(N)[nH]c(=O)c2c1Sc1ccncc1	-1%&-13%
30	C=C1c2cccc(O)c2C(O)=C2C(=O)[C@]3(O)C(O)=C(C(N)=O)C(=O)[C@@H](N(C)C)[C@@H]3[C@@H](O)[C@H]12	13%
31	C=CC(=O)N1CCC[C@@H](n2nc(-c3cccc(C(=O)Nc4ccc(C(C)C)c(C)c4)c3)c3c(N)ncnc32)C1	32%[activator]
32	N#Cc1ccc(-c2cnc3[nH]cc(NC(=O)c4cccnc4)c3c2)cc1	-19%
33	CCCCCCCCCCCCCCCC(=O)O	-15%
34	O=C(O)c1cc(-c2c(-c3ccccc3)nn3ccccc23)n[nH]c1=O	13%
35	Cc1cccc(C)c1-n1c(=O)c2cnc(Nc3ccc(N4CCN(C)CC4)cc3)nc2n2c3ccccc3nc12	16%
36	O=C(Nc1cccnn1)N1CCN(c2nccc(-c3ccc(F)c(F)c3)n2)CC1	-1%[39.2 µM]
37	N#Cc1ccc2[nH]cc(CCCCN3CCN(c4ccc5oc(C(N)=O)cc5c4)CC3)c2c1	1%&18%
38	COc1ccccc1OCCNCC(O)COc1cccc2[nH]c3ccccc3c12 (stereo unspecified)	-11%
39	COc1cccc2c1c(O)c(C(=O)N(C)c1ccc(C(F)(F)F)cc1)c(=O)n2C	-26%&0%&-12%
40	COc1ccc(NS(=O)(=O)c2sc3ccc(Cl)cc3c2C)cc1N1CCNCC1	49%

A few values from the results shown.
In nsP2pro inh, entry 37 is entered as 1%&18%
In nsP2pro inh, entry 32 is entered as -19%
In nsP2pro inh, entry 36 is entered as -1%[39.2 µM]
In nsP2pro inh, entry 33 is entered as -15%
In nsP2pro inh, entry 35 is entered as 16%

Four entries from above, as labelled records:
31: C=CC(=O)N1CCC[C@@H](n2nc(-c3cccc(C(=O)Nc4ccc(C(C)C)c(C)c4)c3)c3c(N)ncnc32)C1
  nsP2pro inh = 32%[activator]

32: N#Cc1ccc(-c2cnc3[nH]cc(NC(=O)c4cccnc4)c3c2)cc1
  nsP2pro inh = -19%

33: CCCCCCCCCCCCCCCC(=O)O
  nsP2pro inh = -15%

34: O=C(O)c1cc(-c2c(-c3ccccc3)nn3ccccc23)n[nH]c1=O
  nsP2pro inh = 13%

Along the list, quoted from above:
nsP2pro inh for nos. 29–39 → -1%&-13%, 13%, 32%[activator], -19%, -15%, 13%, 16%, -1%[39.2 µM], 1%&18%, -11%, -26%&0%&-12%

Carrying on.
entry	SMILES	nsP2pro inh
41	CNc1nc(Nc2cn(C(C)(C)C#N)nc2C)ncc1C(F)(F)F	-7%&-1%
42	C[C@H](Nc1ncnc2nc[nH]c12)c1cc2cccc(Cl)c2c(=O)n1-c1ccccc1	1%&26%&27%
43	Cc1ccccc1Cc1c(C)nc2c(-c3ccccc3)c(C)[nH]n2c1=O	-16%
44	COc1ccc(NC(=O)c2ccc(-c3ccc(C(N)=O)cc3C)cc2)cc1N1CCN(C)CC1	18%
45	COc1cccc(-c2cn(-c3ccc(CCN4CCC(O)CC4)cc3)c3ncnc(N)c23)c1	111%[activator]
46	Cc1cc(C(=O)N2Cc3cnn(C)c3Nc3ccccc32)ccc1CNC(=O)N1CCN(Cc2cc(O)cc(O)c2)CC1	1%
47	CCCCCCCCCCCC(=O)O	-21%
48	CC(C)c1ccc(-n2ncc3c(=O)n(CC(=O)Nc4cc(F)ccc4Cl)cnc32)cc1	1%
49	COC(=O)N1CCN(Cc2cccc(NC(=O)Nc3ccc(C)nc3)c2F)CC1	2%
50	CN(C)C(=O)[C@H](O)[C@H](Cc1ccccc1)NC(=O)c1cc2cc(Cl)ccc2[nH]1	-10%
51	Cc1ccc(C(=O)N(CCCN)C(c2oc3cc(Cl)ccc3c(=O)c2Cc2ccccc2)C(C)C)cc1 (stereo unspecified)	97%[activator]
52	O=C1Cc2c([nH]c3ccc([N+](=O)[O-])cc23)-c2ccccc2N1	42%[activator]
53	C[C@H]1[C@H](/C=C/c2ccc(-c3ccccc3C#N)cn2)[C@@H]2[C@@H](C)OC(=O)[C@@H]2C[C@@H]1C	-16%
54	Cc1cc(Nc2nc(NC(C)c3ncc(F)cn3)ncc2Cl)n[nH]1 (stereo unspecified)	6%
55	CC(C)(C)c1ccc(CNC(=S)NCc2ccc(NS(C)(=O)=O)c(F)c2)cc1	-10%
56	C[C@@H]([C@@H](O)c1ccc(O)cc1)N1CCC(O)(c2ccccc2)CC1	-9%
57	O=C(O)Cn1nnc(-c2cc(N3CCC(Oc4cc(F)ccc4Br)CC3)no2)n1	-13%&-13%
58	O=P(O)(O)OC(CO)CO	-15%
59	COc1cc(C(=O)O)ccc1NC(=O)[C@@H]1N[C@@H](CC(C)(C)C)[C@](C#N)(c2ccc(Cl)cc2F)[C@H]1c1cccc(Cl)c1F	-20%
60	Cc1ccccc1C#Cc1ccc(CCC(=O)O)cc1	10%
61	Cc1ccc(NC(=O)Nc2cc(C(F)(F)F)ccc2F)cc1Nc1ccc2c(c1)NC(=O)/C2=C\c1ccc[nH]1	10%
62	COc1ccc(C2=N[C@@H](c3ccc(Cl)cc3)[C@@H](c3ccc(Cl)cc3)N2C(=O)N2CCNC(=O)C2)c(OC(C)C)c1	10%
63	O=C(O)C1(Cc2cccc(Nc3nccs3)n2)CCC(Oc2cccc(Cl)c2F)CC1 (stereo unspecified)	121%[activator]
64	Oc1ccc(-c2cnc3ccc(NCc4ccco4)nn23)cc1	20%
65	O=C(O)c1cc2ccccc2c(Cc2c(O)c(C(=O)O)cc3ccccc23)c1O	19%
66	Nc1nc2c(s1)CCN(Cc1ccc(Cl)cc1)CC2	8.8µM*
67	O=C(Nc1c(-c2cccs2)nc2ccccn12)c1ccc(Cl)cc1	-6%
68	CCC[C@H](N[C@@H](C)C(=O)N1[C@H](C(=O)O)C[C@@H]2CCCC[C@@H]21)C(=O)O	-13%
69	O=C1CSc2ccccc2N1Cc1cccc(C(F)(F)F)c1	12%
70	CN1CCN(C2=Nc3ccccc3Nc3ccc(O)cc32)CC1	-12%
71	NC(N)=NC(=O)Cc1c(Cl)cccc1Cl	4%
72	COc1ccc(CN2CCN(C(c3ccc(F)cc3)c3ccc(F)cc3)CC2)c(OC)c1OC	20%&4%
73	CC(C)[C@@H]1CC[C@@H](C)CC1=O	4%
74	CNC1CCCN(c2c(F)cc3c(=O)c(C(=O)O)cn(C4CC4)c3c2OC)C1 (stereo unspecified)	0%
75	COc1c(O)cc2c(c1O)[C@H]1O[C@@H](CO)[C@H](O)[C@@H](O)[C@@H]1OC2=O	-10%
76	CC[C@@H](N)CNc1ccnc(-c2cc(-c3cnn(C)c3)ccc2O)n1	80%[activator]
77	O=C(Nc1ncc(SCCN2CCCC2)s1)C1(c2ccc(S(=O)(=O)C3CC3)cc2)CC1C1CCCCC1 (stereo unspecified)	37%&79%[activator]
78	CCCCCCCCCCCCCCCCCC(=O)O	?
79	Cc1ccccc1[C@@H](C(=O)NC1CCCCC1)N(C(=O)Cn1ccnc1C)c1cccc(F)c1	5%
80	FC(F)(F)c1ccc(CNc2ccc(Cc3c[nH]c4ncccc34)cn2)cc1	36%[activator]
81	COc1cc2nc(N3CCN(C(=O)COc4c(OC)cccc4C(C)C)CC3)nc(N)c2cc1OC	10%
82	CNC(=O)c1ccccc1Nc1nc(Nc2ccc(N3CCOCC3)cc2OC)ncc1Cl	?
83	c1cncc(CN2CCC(n3ncc4c(N5CCOCC5)nc(-c5ccc6[nH]ccc6c5)nc43)CC2)c1	99%[activator]
84	Cc1[nH]nc2ccc(-c3cncc(OC[C@@H](N)Cc4ccccc4)c3)cc12	27%
85	O=C(NCC1CCN(Cc2cccc(Cl)c2)CC1)[C@@H]1CCCN(c2ncnc3c2nc2n3CCCC2)C1	1%
86	CC(C)c1ccc(NC(=O)c2cccs2)c(-c2nc3ccccc3[nH]c2=O)c1	-3%
87	COc1cc(Nc2ncc3c(n2)-c2ccc(Cl)cc2C(c2c(F)cccc2OC)=NC3)ccc1C(=O)O	1%&78%
88	C/C(=N\O)c1ccc(OCC(=O)N2CCCCC2)cc1	2%
89	CCc1cncnc1N1CCN(Cc2nc3ccc(C(F)(F)F)cc3[nH]2)CC1	48%[activator]
90	O=C(Nc1ccccc1Br)N[C@@H]1CCN(c2ccc(C(F)(F)F)cn2)C1	-15%
91	CCc1nc(-c2cccc(C)c2)c(-c2ccnc(NC(=O)c3ccccc3)c2)s1	5%
92	C=C1CCN([C@H](C)[C@](O)(Cn2cncn2)c2ccc(F)cc2F)CC1	-3%&-2%
93	CC[C@]1(O)C[C@@H]2CN(CCc3c([nH]c4ccccc34)[C@@](C(=O)OC)(c3cc4c(cc3OC)N(C)[C@H]3[C@@](O)(C(=O)OC)[C@H](OC(C)=O)[C@]5(CC)C=CCN6CC[C@]43[C@@H]65)C2)C1	34%[activator]
94	O=C(O)CNC(=O)c1ccccc1	?
95	C[C@@H](N)c1ccc(C(=O)Nc2ccnc3[nH]ccc23)cc1	?
96	Cn1c(=O)n(-c2ccc(C(C)(C)C#N)cc2)c2c3cc(-c4cnc5ccccc5c4)ccc3ncc21	2%&4%

Quoted from above: compounds 81 to 83
entry	SMILES	nsP2pro inh
81	COc1cc2nc(N3CCN(C(=O)COc4c(OC)cccc4C(C)C)CC3)nc(N)c2cc1OC	10%
82	CNC(=O)c1ccccc1Nc1nc(Nc2ccc(N3CCOCC3)cc2OC)ncc1Cl	?
83	c1cncc(CN2CCC(n3ncc4c(N5CCOCC5)nc(-c5ccc6[nH]ccc6c5)nc43)CC2)c1	99%[activator]

Bioassay records: PubChem BioAssay, National Center for Advancing Translational Sciences (NCATS)
